Bioassay records as filed in PubChem.
gsp agonist: qHTS for Agonist of gsp, the Etiologic Mutation Responsible for Fibrous Dysplasia/McCune-Albright Syndrome: qHTS; gsp mutant cells, cAMP HTRF, 30 min; control for the full effect not named in the record; Potency, µM (top dose mostly 76.9 µM), without a hit: at the highest dose activation (cAMP increase), actives largely listed as activators; 0.13% of 340,000 active; active = well fitted activation curve with a large enough effect; inconclusive = small, poorly fitted or top-dose-only effect, or another doubt; inactive = no such curve, though single readings can be large or run the other way; cell line not stated here;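 further: phosphodiesterase inhibitor Ro 20-1724 added with compounds to block cAMP breakdown; potency means the concentration at half of the fitted maximal effect; nearly all actives have a fitted effect of over 60% in size; about a fifth of the inactives were tested at one dose only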
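Cells in DMEM/10% FBS with G418 were pretreated with compounds in DMSO plus […] (300 uM stock) for 30 min at 37C. cAMP was measured by HTRF (cAMP-d2 plus anti-cAMP antibody-K) after 30 min at room temperature.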
Sfp inh: qHTS Assay for Inhibitors of Bacillus subtilis Sfp phosphopantetheinyl transferase (PPTase) | 4'-phosphopantetheinyl transferase ffp (Bacillus subtilis), Q9F4F7 | Biochemical Sfp PPTase activity, qHTS | Potency, µM, for inactives: max response, negative = inhibition, hits mostly inhibitors | 3.5% of 310,000 active | AID 1490, 2009; active means well fitted inhibition curve with a large enough effect; inconclusive means small, poorly fitted or top-dose-only effect, or another doubt; inactive means no such curve, though single readings can be large or run the other way;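 further: the enzyme is Sfp with the accession as filed and its product quenches rhodamine fluorescence; potency means the concentration at half of the fitted maximal effect; 0% = enzyme reaction without inhibitor and -100% = no enzyme wells; top concentration of the series not given in the record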
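Sfp 15 nM + cpd, 15 min RT; start w/ rhodamine-CoA 5 uM, BHQ-2-YbbR 12.5 uM (final); 50 mM Hepes pH 7.6, 10 mM MgCl2, 0.01% NP-40, 0.01% BSA; read 525/598 nm at 0 and 30 min.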
Menin MLL FP FL: qHTS Assay for Inhibitors Targeting the Menin-MLL Interaction in MLL Related Leukemias: Competition With Fluorescein Labeled MLL-derived Peptide | Fluorescence polarization, fluorescein-MLL peptide displacement from menin | FP activity change, % at 61.4 µM | 290,000 tested, under 10 active | AID 1766, 2009; inconclusive = falling polarisation curve, or a change in total fluorescence; inactive = total fluorescence flat and polarisation flat or rising; no compound was filed as active; the % refers to the polarisation; negative = inhibition;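 further: % of control where 0% means no effect; inhibitors lower the polarisation; unlabelled MLL peptide was the positive control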
PINK1 expr mod: A Quantitative High throughput Screen to Identify Chemical Modulators of PINK1 Expression; PINK1 immunofluorescence, high-content cytometry, 24 h; Potency, µM (titrated, usually from 76.6 µM), for the others: at the top dose activation (PINK1 increase), most hits filed as activators; 0.2% of 410,000 active; active = well fitted activation curve with a large enough effect; inconclusive = small, poorly fitted or top-dose-only effect; inactive = flat fitted curve, though single readings scatter; cell line not stated here;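 further: potency means the concentration at half of the fitted maximal effect; % of control where 0% means no effect; nearly all actives have a fitted effect of over 65% in size; a mitochondrial uncoupler was the plate control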
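Stable cell line, 250 cells/well, 12 h attachment; compounds pinned at 5 concentrations, 24 h; CCCP control. Fixed with nuclear dye, primary antibodies 12 h at 10 degrees C, secondary plus cell stain; laser-scanning cytometer read.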
ClpP mod: qHTS Assay for Activators of ClpP | ATP-dependent Clp protease proteolytic subunit (Bacillus subtilis (strain 168)), P80244 | purified B. subtilis ClpP, FRET peptide cleavage, 20 min | Potency, µM (top dose mostly 57.5 µM), inactives show top-dose activity change, negative = active | 1.9% of 340,000 active; active = well fitted falling curve with a large enough effect; inconclusive = small, poorly fitted or top-dose-only effect; inactive = no such curve, though single readings can be large or run the other way; further: potency means the concentration at half of the fitted maximal effect; the source files actives as falling curves though it sought activators and does not explain the sign; nearly all actives have a fitted effect of over 65% in size; many hits overshoot -100%
Target sequence (P80244 whole entry, looked up): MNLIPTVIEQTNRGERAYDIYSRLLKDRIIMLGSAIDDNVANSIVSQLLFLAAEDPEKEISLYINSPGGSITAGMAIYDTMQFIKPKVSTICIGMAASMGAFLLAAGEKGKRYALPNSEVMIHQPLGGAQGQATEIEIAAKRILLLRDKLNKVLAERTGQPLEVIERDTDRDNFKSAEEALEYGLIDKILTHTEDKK
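Purified B. subtilis ClpP, 10 microg/mL final in Tris/HCl pH8 with KCl, BSA, glycerol and Tween-20, cleaved an Abz/nitrotyrosine-quenched decapeptide. Fluorescence (ex 320, em 430) was read at 0 and 20 min at room temperature. Delta was normalized to 5.8 microM ADEP and DMSO/no-enzyme controls.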
gsp antagonist: qHTS for Antagonists of gsp, the Etiologic Mutation Responsible for Fibrous Dysplasia/McCune-Albright Syndrome: qHTS. gsp-mutant cells, cAMP HTRF, 30 min; control for the full effect not named in the record. Potency, µM (highest dose often 76.9 µM), inactives show top-dose activity change, negative = inhibition, hits mostly inhibitors. 0.4% of 340,000 active. AID 624288, 2012; active = falling curve of any shape with a large fitted effect; inconclusive = falling curve, mostly with a smaller effect; inactive = flat or rising curve; cell line not stated here;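 further: intracellular cAMP measured with PDE inhibitor Ro 20-1724 present during compound exposure; potency means the concentration at half of the fitted maximal effect; on the % scale 0 is the no-effect control and ±100 the full control effect; nearly all actives have a fitted effect of over 65% in size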
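HTRF cAMP read-out (cAMP-d2 plus anti-cAMP antibody-K in lysis buffer, 30 min RT). Before lysis, cells are exposed to compounds with […] for 30 min at 37C in DPBS containing Ca/Mg, BSA and Tween 20.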
D2 ag: Beta-Arrestin HTS for Positive Allosteric Modulators of the Human D2 Dopamine Receptor: Agonists. DiscoveRx PathHunter D2 beta-arrestin, luminescence, 90 min; 100% = 57 uM dopamine signal. activation, % (no concentration beside the values). 0.084% of 360,000 active; in the data active = activation above about 40%; inconclusive = about 15% to 40%; inactive = below about 15%; further: compound concentration not given in the record; the text of the record calls up to 30% inactive
Target sequence (P14416 whole entry, looked up): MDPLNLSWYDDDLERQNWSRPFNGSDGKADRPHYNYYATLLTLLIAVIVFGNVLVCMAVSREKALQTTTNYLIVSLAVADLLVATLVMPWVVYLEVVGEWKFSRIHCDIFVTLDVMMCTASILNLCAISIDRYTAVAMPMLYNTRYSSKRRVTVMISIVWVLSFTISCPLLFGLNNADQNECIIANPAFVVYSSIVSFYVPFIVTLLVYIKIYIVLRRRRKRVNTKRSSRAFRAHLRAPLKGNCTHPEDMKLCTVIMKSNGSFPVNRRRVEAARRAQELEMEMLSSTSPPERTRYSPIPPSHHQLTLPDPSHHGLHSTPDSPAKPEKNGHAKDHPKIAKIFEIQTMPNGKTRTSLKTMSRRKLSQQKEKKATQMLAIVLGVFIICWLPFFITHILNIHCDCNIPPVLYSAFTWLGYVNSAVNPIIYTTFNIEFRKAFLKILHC
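DiscoveRx PathHunter D2 beta-arrestin cells (2,100/well) attached overnight, then compound-stimulated 90 min at 37 C in HBSS/10 mM HEPES/0.1% Tween-20 buffer; beta-galactosidase complementation read by luminescence after 1 h at ambient temperature. Dopamine 57 uM final (EC100) as control.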
Numbers without * were called inactive; ? = inconclusive; / = no result given; [ ] = dose if it differs, or a comment.

Every second line gives: gsp agonist	Sfp inh	Menin MLL FP FL	PINK1 expr mod	ClpP mod	gsp antagonist	D2 ag
> CC(=O)N/N=C(/c1ccccc1)C(O)c1ccccc1 (stereo not drawn)
    -17%	15%	-4.1	1.6%	0.3%	6%	3.2
> Cc1ccc(CCNC(=O)C2CCCN(S(=O)(=O)c3c(C)noc3C)C2)cc1 (stereo not drawn)
    -6%	7%	2.6	2.1%	1.5%	9%	-3.7
> CSc1ccccc1NC(=O)c1ccoc1C
    -34%[inhibitor]	-27%	0.5	0.8%[38.3 µM]	-4.2%	0%	-1.0
> CCCc1cc(=O)n2[nH]c(C)cc2n1
    6%	2%	3.3	-0.9%	32µM*	6%	1.1
> CC(=O)N[C@H]1C(O)O[C@H](CO)[C@@H](O)[C@@H]1O (stereo partly drawn)
    /	/	/	0.8%	0.9%	-4%	-2.1
> O=C(c1cc(N2C(=O)C3C4CCC(C4)C3C2=O)ccc1Cl)N1CCN(c2ccc(F)cc2)CC1 (stereo not drawn)
    7%	-8%	0.4	2.7%	-1.9%	?	0.9
> CC(NC(=O)c1cc(COc2cccc(C(F)(F)F)c2)on1)c1nccs1 (stereo not drawn)
    -10%	6%	/	-2.4%	0.6%	-9%	-1.2
> O=C(Cc1c[nH]c2ccccc12)NCc1ccc(Cl)cc1Cl
    ?	0%	3.6	3.4%	-1.3%	-16%	-3.8
> COc1ccc2c(ccc[n+]2CC(=O)c2ccc(C)cc2)c1
    -2%[15.4 µM]	3%	11	-1.7%	-1.5%	5%	-0.3
> COc1ccccc1C(=O)C1CCCN(Cc2ccc3c(c2)OCCO3)C1 (stereo not drawn)
    1%[15.4 µM]	23%	1.9	0.7%	/	15%	-15
> COC(=O)CNc1nc(C2CC2)nc2c1nnn2Cc1ccccc1Cl
    -42%	9%	1.9	17%[38.3 µM]	-2.3%	9%	2.7
> Cc1ccccc1N1CCN(C2CCCN(C(=O)c3noc4c3CCCC4)C2)CC1 (stereo not drawn)
    -11%	-11%	/	1.8%	-0.9%	-7%	-4.8
> Cc1cc(C)n(CCCN2CCC(C(=O)Nc3cccc(-c4cccc(F)c4)c3)CC2)n1
    -8%	-7%	-3.8	0.2%	1.1%	10%	1.7
> CN(CC(=O)Nc1ccc(Cl)cc1)C(=O)c1cc(-c2cccs2)nn1-c1ccccc1
    1%	/	/	-4.0%	-5.6%	-10%	4.9
> O=C(Cn1c(=S)nc2ccccn21)N1CCc2ccccc2C1
    13%	15%	5.9	-0.9%	1.5%	-4%	-1.9
> Cc1ccc(-c2ccc(C3=CC(=O)CC(C)(C)C3=O)cc2)cc1
    -42%	/	/	3.2%	0.1%	/	-5.8
> CCOC(=O)Cc1nc2nc(C)cc(C)n2n1
    -1%[15.4 µM]	16%	-2.2	-0.2%	/	-2%	0.4
> COc1ccc(-n2c(C)nnc2SCC(=O)Nc2ccccc2F)cc1
    -10%	4%	/	-0.8%	/	2%	-2.1
> CN(C(=O)CSc1nc(N)c2c3c(sc2n1)CSC(C)(C)C3)c1ccccc1
    -1%	-12%	1.9	6.1%	?	-23%	-2.5
> C=C(C)Cn1c2ccc(NC(=O)NCC)cc2c(=O)n1C
    /	/	/	1.5%	4.4%	/	10
> Cc1ccc(C)c(Cn2c(O)c(N=NC(=S)Nc3ccccc3F)c3ccccc32)c1
    0%	-17%	0.5	9.0%	1.8%	-8%	-2.8
> COc1ccc(N=C2NC(=O)C(CC(=O)NCCc3ccc(OC)c(OC)c3)S2)cc1 (stereo not drawn)
    22%	5%	-0.8	0.1%	/	-4%	2.8
> Clc1ccccc1OCc1nc(-c2ccncc2)no1
    -19%	6%	-2.6	0.0%	0.4%	1%	-1.3
> COc1cccc(NC(=O)Cc2c(O)c3ccccc3[nH]c2=O)c1
    -7%	4%	3.6	0.4%	?	-9%	-3.3
> CC(=O)CSc1nnc(-c2ccc(S(=O)(=O)N3CCCC3)cc2)n1C
    -23%[15.4 µM]	22%	-0.8	2.9%	/	14%	-0.5
> NC(=S)NNc1ccnc2cc(Cl)ccc12
    14%[15.4 µM]	-81%	6.3	-0.1%	/	-26%	-4.1
> Cc1cccc(N2CCN(Cc3ccc(Br)o3)CC2)c1C
    -12%	-14%	5.7	17%	1.2%	0%	-3.4
> O=c1[nH]c(CSc2ccccn2)nc2ccccc12
    ?	13%	0.8	-0.3%	/	6%	2.0
> FC(F)(F)c1nc(-c2ccccc2)ncc1-c1nnnn1-c1ccccc1
    8%[15.4 µM]	-1%	-0.6	1.6%	/	?	4.7
> Cc1cc(C)nc(SCc2nnc(SCC(=O)NCc3ccco3)n2-c2ccccc2)n1
    17%	17%	-1.2	-5.1%	-0.9%	-12%	-1.2
> CCOC(=O)Cc1csc(NC(=O)C(C)(C)C)n1
    -7%	16%	5.0	4.6%[38.3 µM]	0.1%	5%	-1.6
> Cc1ccc(/C=C2\SC(=S)N(CCCC(=O)Nc3ccccn3)C2=O)cc1
    -6%	15%	2.7	12%	1.2%	8%	-2.7
> O=C1CC(C(=O)Nc2ccc(Cl)cc2[N+](=O)[O-])C2(CCCCC2)O1 (stereo not drawn)
    -13%	7%	-0.9	6.8%	28µM*	6%	4.4
> CCOC(=O)c1c(NC(=O)C2C3C=CC(C3)C2C(=O)O)sc2c1CCCC2 (stereo not drawn)
    4%	14%	-1.3	-0.4%	/	-21%	-6.4
> Cc1nc(N2CCC(C)CC2)c2c(C)c(C(=O)O)sc2n1
    ?	-10%	6.1	-3.8%	-7.1%	1%	-0.2
> O=[N+]([O-])c1cccnc1Sc1ccc(F)cc1
    -19%[15.4 µM]	/	/	1.9%	/	5%	-20
> Cc1cccc(Nc2ncnc3onc(-c4ccc(F)cc4)c23)c1C
    ?	2%	0.1	-0.9%	-1.1%	-9%	?
> COc1cc(-c2cc(C(=O)Nc3ccccc3N3CCOCC3)c3ccccc3n2)cc(OC)c1OC
    0%[15.4 µM]	9%	2.2	2.5%	/	1%	-4.8
> COC(=O)c1ccccc1NC(=O)NC1CC1
    -2%	19%	-7.6	0.9%	-6.3%	-11%	-2.0
> CC(C)C[C@H](NC(=O)OC(C)(C)C)C(=O)N1CCC(C(=O)O)CC1
    13%	9%	3.0	0.3%	-0.9%	5%	0.1
> CN(C)C=NC(=O)c1cccn1-c1ncc(C(F)(F)F)cc1Cl
    -7%	18%	-0.6	3.2%	/	-9%	0.2
> CC(C)c1cc(C(=O)N/N=C/c2ccoc2)c(O)c(C(C)C)c1
    13%	13%	4.0	2.0%	-18%	-18%	-4.6
> C/C(=N\Nc1ccc([N+](=O)[O-])cc1[N+](=O)[O-])c1cccnc1
    -46%[inhibitor]	-13%	-2.2	3.9%	-0.4%	-19%	13
> O=C(CCCc1ccccc1)N1CCN(c2ccc([N+](=O)[O-])cc2)CC1
    -62%[inhibitor]	2%	-0.3	7.2%	?	-13%	-0.6
> COc1cccc2cc(C(=O)NCCc3ccccc3)oc12
    ?	-2%	/	-0.6%	-14%	-16%	-5.4
> COc1ccc(NC(=O)N2CC3(CCN(C(=O)c4csnn4)CC3)C2)cc1
    /	6%	0.8	0.7%	/	/	/
> CC1CCCCN1C(=O)c1cc2nc(-c3ccccc3)cc(-c3ccccc3)n2n1 (stereo not drawn)
    25%	?	4.5	7.1%	-29%	-1%	-6.4
> COC(=O)c1ccc(C)c(NC(=O)c2ccc(Cn3cc([N+](=O)[O-])cn3)o2)c1
    -24%	1%	1.3	0.4%	-1.0%	-5%	-2.1
> COc1ccc(/C=C\C(=O)NCc2ccc3c(c2)cc(C)n3C)cc1OC
    ?	-8%	1.5	4.2%	-21%	4%	1.6
> CCn1c(-c2ccc(C(C)(C)C)cc2)n[nH]c1=S
    28%	-29%	0.7	2.2%	?	?	-3.0
> O=C(Oc1ccc(-c2nnco2)cc1)C1CCN(C(=O)c2ccc(F)cc2)CC1
    ?	-1%	-1.0	-0.5%	-3.9%	0%	-4.8
> CC(C)(C)C(=O)C(Cc1ccccc1Cl)n1cncn1 (stereo not drawn)
    -38%[inhibitor]	-8%	-2.0	0.8%	0.1%	-1%	-3.4
> COC(=O)c1ccc(-n2c(C)cc(/C=N/Nc3nc(C)cc(=O)[nH]3)c2C)cc1
    -36%[inhibitor]	-18%	0.3	6.1%	-1.9%	-22%	2.5
> NC(=O)c1ccc(-n2nnnc2SCc2ccc(F)cc2)cc1
    -2%	13%	3.5	-0.3%	0.8%	6%	-2.6
> COc1cc2c(cc1NC(=O)Nc1cccc(C)c1)oc1ccccc12
    ?	4%	-2.0	5.8%	28µM*	15%	-1.6
> Cc1ccc(NC(=S)N2CCC(c3ccc(C)cc3)C2)cc1 (stereo not drawn)
    -29%	32µM*	-0.9	2.0%	-2.2%	-2%	-0.6
> COCC(=O)N(C)C[C@H]1N[C@@](Cc2ccccc2)(C(=O)OC)[C@H]2C(=O)N(C)C(=O)[C@@H]12
    /	/	/	-0.1%	-1.0%	6%	-0.9
> CCn1c(=O)cc(OCC(=O)N2CCCCCC2)c2ccccc21
    8%	7%	2.5	/	-5.6%	-11%	-4.6
> CCOc1cccc(C2/C(=C(/O)c3ccc4c(c3)CC(C)O4)C(=O)C(=O)N2CCN2CCOCC2)c1 (stereo not drawn)
    ?	-4%	-0.4	-0.1%	/	5%	-0.7
> COC(=O)[C@@H]1CCCN1Cc1c(C(=O)N2CCOCC2)nc2c(C)cccn12
    1%	5%	-8.8	-1.1%	-1.3%	0%	2.5
